# Screening results as filed in PubChem BioAssay.
# Cruzain inh Det = inhibitors of Trypanosoma cruzi cruzain with detergent; purified cruzain, Z-FR-AMC fluorescence, 0.01% Triton; P25779; hit rate 0.43% among 200,000; Potency, µM, inactives show max response, negative = inhibition, most hits filed as inhibitors;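 also: plate controls were neutral wells for no effect and buffer without enzyme for full effect; nearly all actives have a fitted effect of over 40% in size; top concentration of the series not given in the record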
# Target sequence (P25779 123-467 limits assumed): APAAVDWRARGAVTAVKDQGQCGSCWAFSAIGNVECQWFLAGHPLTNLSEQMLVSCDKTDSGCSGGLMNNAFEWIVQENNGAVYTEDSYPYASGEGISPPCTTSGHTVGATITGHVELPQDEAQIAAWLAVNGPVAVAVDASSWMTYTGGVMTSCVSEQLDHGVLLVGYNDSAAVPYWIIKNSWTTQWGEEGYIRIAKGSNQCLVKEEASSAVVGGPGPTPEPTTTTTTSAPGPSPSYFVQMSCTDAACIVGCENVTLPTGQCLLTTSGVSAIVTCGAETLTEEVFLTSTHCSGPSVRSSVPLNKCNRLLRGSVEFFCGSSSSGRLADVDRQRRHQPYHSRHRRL
#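 Cysteine protease activity tested under reducing, mildly acidic conditions (100 mM sodium acetate pH 5.5, 5 mM DTT) plus 0.01% Triton X-100. Cruzain 1.5 nM; substrate Z-FR-AMC 2 uM; 15 min compound preincubation at room temperature.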
# SARS PLP yeast = inhibitors of SARS-CoV papain-like protease in yeast; S. cerevisiae expressing SARS-CoV PLpro, growth rescue; control for the full effect not named in the record; Potency, µM (series often up to 32.9 µM), without a hit: at the top dose activity, positive = growth rescue; hit rate 0.19% among 330,000; AID 485353; active means well fitted rising curve with a large enough effect; inconclusive means small, poorly fitted or top-dose-only effect; inactive means no such curve, though single readings can be large or run the other way; also: 0% is about no effect; nearly all actives have a fitted effect of over 55% in size; growth read by luminescence after 48 h
# RE007 growth inh = less growth of the S. pombe RE007 Vpr strain | hit rate 0.21% among 360,000 | S. pombe RE007 Vpr strain, BacTiter-Glo ATP luminescence, 24 h; control for the full effect not named in the record | Potency, µM (series often up to 92.2 µM), without a hit: top-dose activity change, negative = less growth; active = well fitted falling curve with a large enough effect; inconclusive = small, poorly fitted or top-dose-only effect; inactive = no such curve, though single readings can be large or run the other way;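 also: % is scaled to controls: 0 for no effect and ±100 for the full control effect; nearly all actives have a fitted effect of over 50% in size; the assay follows cell death caused by Vpr and the record does not say whether a fall means rescue or toxicity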
#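 Fission yeast RE007 carrying one integrated HIV-1 vpr copy, seeded at OD 0.01 in PMG+AL medium with 23 nL pinned compound. Grown 24 h at 30 degrees; viability read by BacTiter-Glo luminescence after 5 min.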
# MARV entry inh = blocks Marburg virus binding to or entry into cells | Marburg virus pseudotyped entry inhibition, cell reporter; control for the full effect not named in the record; about a third of the inactives were read at about 46 µM | Potency, µM (series often up to 37.8 µM), inactives show at the highest dose activity change, negative = inhibition, hits mostly inhibitors | hit rate 1.8% among 300,000 | AID 540276; active = well fitted inhibition curve with a large enough effect; inconclusive = small, poorly fitted or top-dose-only effect, or effect the other way; inactive = flat fitted curve, though single readings scatter; tested in HEK293 cells; about a fifth of its hits are not listed in these tables; also: % is scaled to controls: 0 for no effect and ±100 for the full control effect; luciferase read-out
# NS1 function inh = blocks influenza NS1 protein function; S. cerevisiae slowed by influenza A NS1, growth recovery by OD600; Potency, µM (highest dose often 46.1 µM), for inactives: at the top dose activity, positive = more growth; hit rate 0.4% among 270,000; AID 2326; active means well fitted rising curve with a large enough effect; inconclusive means small, poorly fitted or top-dose-only effect; inactive means no such curve, though single readings can be large or run the other way; also: nearly all actives have a fitted effect of over 50% in size
#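 Recovery from NS1-induced slow growth read by OD600 in budding yeast switched to galactose assay medium (pH 6.0, -URA) at 1:100 dilution. Compound 23 nl per well; the matching strain lacking NS1 serves as control.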
# Cruzain noTriton = blocks cruzain activity in detergent-free assay; hit rate 2.3% among 200,000; Potency, µM, for the others: max response, negative = inhibition, most hits filed as inhibitors; purified cruzain, Z-FR-AMC fluorescence, no detergent; AID 1476;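 also: plate controls were enzyme without inhibitor for no effect and buffer without enzyme for full effect; nearly all actives have a fitted effect of over 40% in size; top concentration of the series not given in the record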
#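 Detergent-free condition (0.00005% Triton X-100) in acetate buffer pH 5.5 with DTT. 1.5 nM enzyme and compound were pre-mixed 15 min, then 2 uM Z-FR-AMC substrate added; reaction progress from fluorescence change between first and third reads (60 s).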
# 2A StopGo = lowers the luciferase signal of an FMDV 2A StopGo reporter; human cells with a luciferase reporter of 2A StopGo recoding; control for the full effect not named in the record; Potency, µM (top dose mostly 57.9 µM), without a hit: at the top dose signal change, negative = less light; hit rate 1.2% among 410,000; AID 1159524; active = well fitted falling curve with a large enough effect; inconclusive = small, poorly fitted or top-dose-only effect; inactive = no such curve, though single readings can be large or run the other way; tested in HEK293T cells; also: % is scaled to controls: 0 for no effect and ±100 for the full control effect; nearly all actives have a fitted effect of over 45% in size; luciferase light after 4 h
# LASV entry inh = Lassa virus entry inhibition. Lassa virus pseudotype entry inhibition, cell reporter; control for the full effect not named in the record. hit rate 1.2% among 300,000. Potency, µM (highest dose often 37.9 µM), without a hit: at the highest dose activity change, negative = inhibition, actives largely listed as inhibitors; active means well fitted inhibition curve with a large enough effect; inconclusive means small, poorly fitted or top-dose-only effect, or effect the other way; inactive means flat fitted curve, though single readings scatter; tested in HEK293 cells; also: % is scaled to controls: 0 for no effect and ±100 for the full control effect; nearly all actives have a fitted effect of over 50% in size; luciferase read-out
# * marks the source's active call; other numbers are inactive results; u = inconclusive; x = not tested or not shown; & = joins results of further samples; [ ] = remark or other dose. Unless noted, calls follow the shape of the dose curve; as a rule, active = well fitted curve in the direction sought with a large enough effect; inconclusive = small, poorly fitted or top-dose-only effect, or another doubt; inactive = no such curve, though single readings can be large; an effect the other way counts as inactive or inconclusive. Potency is read from the fitted curve at half-maximal effect. This is a random part of the collection, and some 4.7% of all compounds hit somewhere here.
no.	Structure	Cruzain inh Det	SARS PLP yeast	RE007 growth inh	MARV entry inh	NS1 function inh	Cruzain noTriton	2A StopGo	LASV entry inh
1	Cc1cccc(/C=C(\c2nc3ccccc3[nH]2)S(=O)(=O)c2ccccc2)c1	2.0%	-6%	-2%	13µM*	10%	9%	8.9µM*	u
2	CCOc1ccc(N=C2SCC(=O)N2CC)cc1	x	-4%	5%	4%	-18%	x	14%	11%
3	CCOC(=O)C1CCN(c2c(Nc3ccc4c(c3)OCCO4)c(=O)c2=O)CC1	-5.6%	13%	10%	4%&4%	-13%	-2%	24%	-2%
4	O=C(Nc1cccnc1)C1CCCN(c2ncnc3c2nc2n3CCCCC2)C1 (centres undefined)	x	-1%	-8%	x	-16%	x	u	x
5	OCCC1CN(Cc2cnc(-c3ccccc3)s2)CCN1CCc1ccccc1 (centres undefined)	x	-1%	-21%	x	-1%	x	u	x
6	Cc1cccc(NC(=O)CN2CCC(NC(=O)C3CCCCC3)CC2)c1C	4.1%	13%	3%	1%[46.1 µM]	5%	8%	-13%	11%
7	O=C(NS(=O)(=O)c1ccc2c(c1)OCCO2)c1ccccc1	5.1%	0%	-21%	-1%[46.1 µM]	7%	-2%	-4%	0%
8	CN1C(=O)c2ccccc2Sc2ccc(NC(=O)N3CCCC3)cc21	1.2%	3%	-8%	-5%	3%	7%	-2%	-25%
9	CCOc1ccc(CCNC(=O)c2cnc3sc(N4CCC(C)CC4)nn3c2=O)cc1	2.8%	x	x	x	x	-10%	u	-28%[46.1 µM]
10	Cc1ccc(C)c(CSc2nnc(-c3cccs3)n2Cc2ccco2)c1	-7.3%	-19%	23%	u	-4%	4%	u	2%
11	Cc1cc(N2CCN(c3cccc(C)c3C)CC2)n2nc(C)c(-c3ccc(Cl)cc3)c2n1	0.6%	x	x	-3%[46.1 µM]	x	-18%	-8%	10%[46.1 µM]
12	COc1cc(C(=O)Nc2ccc(O)cc2)ccc1OC(C)=O	3.4%	-3%	1%	-15%	-2%	0%	62%[activator]	0%
13	O=C(Nc1ccccc1Cl)c1ccc(-c2ccccn2)s1	x	-2%	-19%	u	-52%	x	14%	-8%
14	COc1cc([N+](=O)[O-])ccc1NC(=O)C[n+]1cccc(C)c1	-7.1%	7%	0%	u	3%	-2%	-23%	-8%
15	COc1cc(C(=O)N/C(=C\c2cn(C)c3ccccc23)C(=O)N2CCN(C)CC2)cc(OC)c1OC	x	-6%	-5%	-31%[46.1 µM]	-4%	x	-19%	-2%[46.1 µM]
16	CCCCc1c(C)c(C#N)c2nc3ccccc3n2c1Cl	-4.1%	-8%	x	3%	-8%	2%	x	x
17	CN(Cc1ccccc1)C(=O)CCS(=O)(=O)c1cc2c(cc1Cl)NC(=O)CO2	x	-2%	2%	x	-2%	x	-15%	x
18	Cc1ccc(-c2csc(N3CCN(CCCn4c(C(F)(F)F)nc5ccccc54)CC3)n2)cc1	x	-19%	-13%	x	u	x	u	x
19	CCn1c(Cc2ccc(OC)cc2)nnc1SCC(=O)Nc1cccc(C(=O)OC)c1	1.0%	-4%	-3%	0%	-7%	24%	-27%	-10%
20	COCCNC(=O)C(c1ccc(C)cc1)N(Cc1cccs1)C(=O)CCC(=O)Nc1ccccn1 (centres undefined)	x	1%	-10%	-2%[46.1 µM]	-12%	x	0%	u
21	COc1cc2cc(C#N)c(SCC(=O)Nc3cc(C)on3)nc2cc1OC	x	-3%	-8%	8%[46.1 µM]	-6%	x	-7%	15%[46.1 µM]
22	O=[N+]([O-])c1ccc(COc2ccc(CNc3ccccc3)cc2)cc1	-5.6%	20%	-15%	25%	-20%	1%	16%	13%
23	O=C(COc1ncnc2c(Cl)cc(Cl)cc12)N1CCN(S(=O)(=O)c2ccccc2)CC1	-6.8%	-6%	-1%	u	9%	-1%	u	1%
24	CCOCCCn1c(SCC(=O)Nc2ccc(C)cc2)nc2ccccc2c1=O	-2.6%	x	x	x	x	u	-7%	-2%[46.1 µM]
25	COc1ccc(N(C(=O)c2ccco2)C(C(=O)NC2CCCC2)c2cccs2)cc1OC (centres undefined)	-1.4%	-5%	3%	-1%	0%	2%	-4%	-15%
26	COc1nc2ccccc2nc1N1CCN(c2ccc(F)cc2)CC1	x	2%	-10%	x	-1%	x	u	x
27	COc1cccc(Oc2ccc(C(F)(F)F)cc2NC(=O)CCc2nc3ccccc3c(=O)[nH]2)c1	x	9%	2%	u	29%	x	21%	-24%
28	Cc1ccc(NC(=O)c2ccc(S(=O)(=O)C(F)F)cc2)c(C)c1	1.8%	-9%	10%	5%	-3%	-8%	-13%	1%
29	O=S(=O)(c1ccc(-c2nnco2)cc1)N1CCCCC1	x	1%	-4%	7%[46.1 µM]	2%	x	12%	u
30	Cc1cccc(NC(=O)c2ccccc2NC(=O)C2CCCCC2)c1C	2.7%	u	15%	-23%	u	u	x	u

# Sorted by formula weight (smallest number first): part of the list above.
no.	Structure	Cruzain inh Det	SARS PLP yeast	RE007 growth inh	MARV entry inh	NS1 function inh	Cruzain noTriton	2A StopGo	LASV entry inh
2	CCOc1ccc(N=C2SCC(=O)N2CC)cc1	x	-4%	5%	4%	-18%	x	14%	11%
12	COc1cc(C(=O)Nc2ccc(O)cc2)ccc1OC(C)=O	3.4%	-3%	1%	-15%	-2%	0%	62%[activator]	0%
13	O=C(Nc1ccccc1Cl)c1ccc(-c2ccccn2)s1	x	-2%	-19%	u	-52%	x	14%	-8%
22	O=[N+]([O-])c1ccc(COc2ccc(CNc3ccccc3)cc2)cc1	-5.6%	20%	-15%	25%	-20%	1%	16%	13%
5	OCCC1CN(Cc2cnc(-c3ccccc3)s2)CCN1CCc1ccccc1 (centres undefined)	x	-1%	-21%	x	-1%	x	u	x
19	CCn1c(Cc2ccc(OC)cc2)nnc1SCC(=O)Nc1cccc(C(=O)OC)c1	1.0%	-4%	-3%	0%	-7%	24%	-27%	-10%
20	COCCNC(=O)C(c1ccc(C)cc1)N(Cc1cccs1)C(=O)CCC(=O)Nc1ccccn1 (centres undefined)	x	1%	-10%	-2%[46.1 µM]	-12%	x	0%	u

# Remaining list, next part
no.	Structure	Cruzain inh Det	SARS PLP yeast	RE007 growth inh	MARV entry inh	NS1 function inh	Cruzain noTriton	2A StopGo	LASV entry inh
31	CC(/C=N/NC(=O)c1cccnc1)=C\c1ccccc1	x	2%	1%	-1%[46.1 µM]	x	x	0%	12%
32	COc1ccc(C=O)cc1OS(=O)(=O)c1ccccc1[N+](=O)[O-]	-5.1%	2%	-25%	2%[46.1 µM]	-30%	17%	13%	5%
33	COc1ccc(/C=N/c2oc(-c3ccccc3)cc2C#N)cc1	-7.0%	-10%	u	40%	-24%	-11%	-3%	1%
34	COc1ccc(OC)c(CNC(=O)C2CCC(=O)N2C(C)C)c1 (centres undefined)	x	1%	-2%	x	5%	x	-23%	x
35	CC(C)=NNc1nc(-c2ccccc2)c(C)s1	x	-1%	-5%	22%[46.1 µM]	x	x	10%	-2%[46.1 µM]
36	Cc1ccc(S(=O)(=O)c2nnn3c2nc(N2CCOCC2)c2ccccc23)c(C)c1	x	-1%	-6%	x	11%	x	19%	x
37	CCN(CC)CCC=C(c1cccs1)c1cccs1	x	x	5%	u	x	x	-1%	u
38	C/C(O)=C(/C#N)C(=O)Nc1cc(Br)ccc1Br	-9.3%	x	x	-3%&-3%	x	1%	-8%	x
39	Cc1ccc(C(=O)Nc2nnc(S(=O)(=O)Nc3ccccc3C)s2)cc1C	x	-1%	2%	x	8%	x	4%	x
40	COC(=O)c1sccc1S(=O)(=O)N(CC(=O)NCc1ccc(C)cc1)c1ccc(C)cc1	-5.6%	x	x	x	x	3%	-6%	u
41	CCOc1ccc(Nc2nc(Cc3nnc(SCC(=O)NC4CCCC4)n3C)cs2)cc1	-1.0%	-6%	8%	14%	1%	-6%	x	u
42	CCN(CC)S(=O)(=O)c1ccc(N2CCCCC2)c(NC(=O)/C(C#N)=C/c2ccc(OC)cc2)c1	-6.7%	7%	-7%	u	7%	10µM*	-28%	-13%
43	CC(=O)c1sc(NC(=O)c2cccs2)nc1C	x	-1%	-15%	x	-35%	x	20%	x
44	Cc1ccc(-c2nc3ccccc3c(=O)n2Cc2ccccc2)cc1	-4.0%	-30%	1%	10%	-31%	7%	-21%	-14%
45	COc1ccc(OCC(=O)Nc2ccc(Cl)c(-c3nc4ncccc4o3)c2)cc1	-1.2%	x	x	u	x	8%	-23%	-5%[46.1 µM]
46	COc1ccc(OC)c(NC(=O)Cn2c(=O)cc(-c3ccccc3)c3c(C)nn(C)c32)c1	-3.4%	x	x	x	x	25%	u	-4%[46.1 µM]
47	CC(=O)Oc1ccc(C2C3=C(CC(C)(C)CC3=O)Nc3cc4c(cc32)OCCO4)cc1 (centres undefined)	x	0%	4%	x	-13%	x	-7%	x
48	CCn1c(-c2cc(-c3ccccc3)sc2N)n[nH]c1=S	x	-5%	2%	u	-1%	x	-9%	-9%[46.1 µM]
49	COc1ccc(/C=N/NC(=O)c2ccc3c(c2)NC(=O)C(C)(C)O3)cc1OC	x	1%	2%	2%[46.1 µM]	-6%	x	-16%	-21%
50	CCS(=O)(=O)c1nc(S(=O)(=O)c2ccc(C)cc2)c(NCc2ccccn2)s1	x	1%	-3%	-11%[46.1 µM]	x	x	14%	-7%[46.1 µM]
